# Ecoli growth: inhibitors of Escherichia coli growth | OD600, 23 h; active compounds read low | OD600 absorbance (no concentration beside the values) | AID 1053175 | 0.21% of 330,000 active;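 active = OD600 absorbance below the run mean of sample wells minus 3.6 SD, in any replicate, cut at about 0.56 in these data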;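 also: stock transfer was 300 nL into about 60 µL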
# rRNA inh HTS: selective bacterial rRNA inhibition in E. coli; E. coli WT GFP vs humanized-ribosome RFP mutants, fluorescence, 24 h; active compounds read low; DMSO median 0, no signal -100; 1.6% of 350,000 active; GFP signal change (wild-type ribosome), % (no concentration beside the values);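 active = significant combined selectivity score with lowered wild-type GFP, culture density cut under 30%, mutant RFP and density less affected; inactive = any of these conditions unmet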; also: one replicate is shown; some compounds called inactive have numbers as strong as hits
# Beta apoptosis: blocks beta cell apoptosis; INS-1E cytokine-induced death, ATP luminescence, 48 h; percent of positive-control rescue, neutral wells zero; protection from apoptosis, % (test concentration not listed); 0.8% of 300,000 active; AID 435005;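 active = all replicates at 75% or more, or half of them and the mean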;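 also: 0% = cytokine-treated negative control wells and 100% = positive control rescue; higher means more ATP so stronger rescue from cytokine killing; wells of about 40 µL received 100 nL stock; the first replicate is given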
# T cruzi repl: blocks replication of Trypanosoma cruzi | T. cruzi beta-gal in NIH3T3, luminescence, 90 h | inhibition, % (no concentration beside the values) | 1.4% of 300,000 active | AID 1885;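 active = mean inhibition across valid replicates above about 55%, limit read from the data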;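 also: signal also drops with host cell toxicity which is not excluded here; 0% = plate median of DMSO wells and 100% = zero luminescence signal; higher percent means less beta-gal luminescence so fewer parasites; stock transfer was 50 nL into about 50 µL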
# UCH37 inh: inhibitors of human deubiquitinating enzyme UCH37 | purified proteasome/UCH37, Ub-AMC cleavage fluorescence | inhibition, % (test concentration not listed) | 0.33% of 330,000 active | Q9Y5K5;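 active = mean of two replicates above 20%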;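 also: 0% = compound-free wells with enzyme and 100% = wells lacking proteasome; stock transfer was 100 nL into about 20 µL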
# Target sequence (Q9Y5K5 whole entry, looked up): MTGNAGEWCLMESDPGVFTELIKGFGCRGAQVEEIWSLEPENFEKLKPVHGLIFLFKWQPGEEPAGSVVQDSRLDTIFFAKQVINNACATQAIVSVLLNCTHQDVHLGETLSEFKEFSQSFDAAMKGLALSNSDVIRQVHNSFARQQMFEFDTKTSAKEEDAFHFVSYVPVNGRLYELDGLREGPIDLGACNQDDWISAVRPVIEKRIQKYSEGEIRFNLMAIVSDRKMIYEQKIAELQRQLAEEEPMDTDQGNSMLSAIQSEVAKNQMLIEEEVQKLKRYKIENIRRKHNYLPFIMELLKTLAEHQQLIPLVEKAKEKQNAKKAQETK
#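 Material: Human UCH37 enzyme supplied as purified proteasome complex | Schedule: 30 min preincubation with enzyme, 25 min cleavage at room temperature | Detection: AMC fluorescence 355/460 nm | Measure: % inhibition of Ub-AMC cleavage fluorescence | Controls: Wells without proteasome as full block, compound-free enzyme plus substrate as uninhibited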
# FGF22 binding: shifts melting point of recombinant human FGF22. calls only at 9.99 µM. 1.5% of 340,000 active. Q9HCT0. recombinant FGF22 thermal shift, SYPRO orange fluorescence; percent of sucrose octasulfate shift, DMSO zero;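 active = melting point raised past a set limit in the mean and every replicate; three in four hits are not shown here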
# Target sequence (Q9HCT0 whole entry, looked up): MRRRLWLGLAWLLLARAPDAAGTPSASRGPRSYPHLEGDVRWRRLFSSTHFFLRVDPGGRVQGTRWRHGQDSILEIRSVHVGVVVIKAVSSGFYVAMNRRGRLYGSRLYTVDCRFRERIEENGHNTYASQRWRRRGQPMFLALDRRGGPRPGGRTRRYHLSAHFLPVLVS
# MLL AF4-AF9 inh: blocks AF4 peptide binding to human AF9. P42568. AlphaScreen, biotin-AF4 peptide binding to FLAG-AF9. inhibition, % at 10 µM. 0.47% of 350,000 active;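 active = every replicate reaching a set inhibition limit, whatever the replicate mean, cut at about 25% in these data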;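 also: 0% = plate neutral control median and 100% = total signal loss; the record names both 10 and 1 µM as test concentration; the first replicate is given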
# Target sequence (P42568 whole entry, looked up): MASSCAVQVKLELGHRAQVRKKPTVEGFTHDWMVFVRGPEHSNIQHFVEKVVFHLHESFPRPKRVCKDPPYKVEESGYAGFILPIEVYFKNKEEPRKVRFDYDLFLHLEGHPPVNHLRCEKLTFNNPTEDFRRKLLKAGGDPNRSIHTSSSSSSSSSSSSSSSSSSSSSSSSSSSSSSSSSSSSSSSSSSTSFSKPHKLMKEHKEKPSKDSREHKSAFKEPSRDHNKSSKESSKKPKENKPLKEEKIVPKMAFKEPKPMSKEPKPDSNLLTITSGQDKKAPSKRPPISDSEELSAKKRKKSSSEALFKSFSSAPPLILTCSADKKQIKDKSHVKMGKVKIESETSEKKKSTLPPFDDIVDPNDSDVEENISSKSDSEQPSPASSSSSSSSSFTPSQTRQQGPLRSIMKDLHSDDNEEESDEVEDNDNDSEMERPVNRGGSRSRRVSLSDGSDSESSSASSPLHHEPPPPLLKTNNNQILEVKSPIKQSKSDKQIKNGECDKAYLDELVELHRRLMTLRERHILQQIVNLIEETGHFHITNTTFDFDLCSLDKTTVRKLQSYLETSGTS
# Bfl-1 A1 inh: inhibitors of the anti-apoptotic protein A1, read as caspase activation | MEF A1-2A-BIM cells, Caspase-Glo 3/7 luminescence, 3 h; percent of clofoctol response, vehicle zero | caspase activation, % (no concentration beside the values) | 0.066% of 330,000 active | AID 2462;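 active = over half of replicate activation scores above 10%, or exactly half above 10 with the replicate mean above 10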;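 also: wells of about 30 µL received 50 nL stock; many hits fall short of the cut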
# rRNA inh HTS OD600: further read-out of rRNA inh HTS, marked with its call; OD600 change, %; measured here: OD600 growth;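 optical density of the mix in the first replicate; 0 = DMSO median and -100 = no signal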
# rRNA inh HTS RFP: further read-out of rRNA inh HTS, marked with its call; RFP signal change, %; measured here: RFP humanized mutant strains;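 first replicate; 0 = DMSO median and -100 = no signal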
# The depositor's hits bear a star; i = inactive; · = not tested or not shown.
SMILES,Ecoli growth,rRNA inh HTS,rRNA inh HTS OD600,rRNA inh HTS RFP,Beta apoptosis,T cruzi repl,UCH37 inh,FGF22 binding,MLL AF4-AF9 inh,Bfl-1 A1 inh
CSc1ccc(CN(C)Cc2nc3ccccc3c(=O)[nH]2)cc1,0.677,-15.0,-5.5,-3.3,9.2,1.2,0.6,i,3.5,-0.2
CCN(CC)CCCn1c2c(c(SCC(=O)N3CCc4ccccc43)nc1=O)CCC2,0.683,-3.5,7.8,-4.1,-0.4,12.5,5.5,·,2.1,0.1
Cc1ccccc1COc1ccc(-c2nnn(CC(=O)O)n2)cc1,·,2.2,4.2,-2.4,5.2,-11.1,·,i,-2.6,0.3
CC(C(=O)c1ccc(Br)cc1)[n+]1cccc(NC(=O)c2ccccc2)c1 (centres undefined),0.678,-2.0,-3.0,1.2,2.5,-10.9,2.3,i,3.2,-0.3
NC(=O)CC(NC(=O)Cc1cccc2ccccc12)c1ccc(NC2CCN(Cc3ccccc3)CC2)c([N+](=O)[O-])c1 (centres undefined),0.681,4.2,5.3,8.4,·,12.3,2.5,i,53.6*,0.4
O=C(c1cnn2cccnc12)N1CCN(Cc2ccc3c(c2)OCO3)CC1,0.688,3.7,6.9,1.6,1.5,9.1,-2.1,·,·,0.5
COc1ccc(-c2nsc(SCC(=O)NCc3ccc4c(c3)OCO4)n2)cc1,0.688,·,·,·,-2.4,13.7,0.4,·,·,-0.4
Cc1ccc(CC(SCc2ccccc2)C(=O)O)cc1C (centres undefined),0.735,1.9,-13.8,-14.1,-2.7,-8.1,1.2,i,-1.3,-0.7
Cc1noc(C)c1COC(=O)c1cc(F)c(F)cc1Cl,0.745,·,·,·,-3.6,6.0,4.3,·,·,0.6
Cc1ccc(C)c(NC(=O)c2cc(-c3cc(C)cc(C)c3O)n[nH]2)c1,0.688,-26.5*,-6.6*,-5.0*,·,-10.4,5.1,i,1.5,0.1
COCCN(C(=O)COC(=O)CCc1ccc(OC)cc1)c1c(N)n(Cc2ccccc2)c(=O)[nH]c1=O,0.681,7.9,12.2,-1.9,3.5,-10.6,1.5,i,-2.7,-1.2
CN(C)c1nc2ccccc2n(C)c1=O,0.643,16.9,9.4,2.2,·,-17.7,8.8,i,-2.2,0.1
CC(=O)Nc1ccc(S(=O)(=O)NCCC(=O)NCCOc2ccccc2)cc1,0.71,0.6,-3.3,0.2,-16.0,·,-1.3,i,-0.6,0.4
Cc1ccc(NC(=S)NNC(=O)CSc2nnc(-c3ccc(Cl)cc3)n2C2CCCCC2)cc1,0.727,-13.9,4.8,-1.2,-0.8,-10.0,5.0,i,2.8,0.2
COc1cccc(C2C3=C(CCCC3=O)Nc3[nH]n(-c4ccccc4)c(=O)c32)c1 (centres undefined),0.704,2.1,5.9,0.0,-5.4,-1.4,4.5,i,-0.6,0.6
COc1ccc(NC(=O)COC(=O)CC2CC3CCC2C3)c([N+](=O)[O-])c1 (centres undefined),0.709,·,·,·,-11.6,13.2,-1.2,i,1.6,1.1
CC(=O)Nc1cc(C)nn1-c1nc2ccccc2s1,0.675,14.3,0.4,-0.8,1.2,1.6,0.0,i,-0.3,-0.7
Cn1c(=O)c2c(ncn2CC(N)=O)n(C)c1=O,0.695,9.7,2.7,0.4,-7.4,-2.6,-6.5,·,·,-0.1
Cc1ccccc1CN(C)C1CCN(C)CC1,0.707,13.4,6.0,-2.8,0.5,27.2,-1.3,i,-0.3,-0.4
COc1ccc([N+](=O)[O-])cc1NC(=O)c1cncc(Br)c1,0.666,2.5,-1.1,0.5,2.7,-4.5,1.0,i,-3.3,0.5
Cc1cccc(CCN(Cc2cc3cccc(C)c3[nH]c2=O)C(=O)N2CCOCC2)c1,0.677,·,·,·,2.7,3.8,3.9,·,·,0.4
c1ccc(CNc2cnccn2)cc1,0.702,·,·,·,-7.5,0.5,-280.3,·,·,0.1
CC1CCC(NC(=O)c2cc(S(=O)(=O)N(C)C)ccc2N2CCCC2)CC1 (centres undefined),0.697,3.6,4.0,-1.1,6.3,18.9,1.4,i,-6.6,-1.4
Cc1cccc(N2C(=O)CC(Sc3nc(-c4ccccc4)c4cc(Cl)ccc4n3)C2=O)c1 (centres undefined),0.731,·,·,·,4.1,20.8,-59.2,·,·,-0.2
COc1ccc(/C=N/NC(=O)CCn2cnc3ccccc32)cc1,·,3.4,6.5,4.5,-3.6,-2.5,·,·,1.7,0.3
# The list continues:
SMILES,Ecoli growth,rRNA inh HTS,rRNA inh HTS OD600,rRNA inh HTS RFP,Beta apoptosis,T cruzi repl,UCH37 inh,FGF22 binding,MLL AF4-AF9 inh,Bfl-1 A1 inh
Cc1ccc(Cn2nnc3c(=O)[nH]c(C4CCN(S(=O)(=O)Cc5ccccc5)CC4)nc32)cc1,0.703,-15.1,-42.4,3.7,3.8,24.2,5.4,i,1.1,0.1
Cc1ccc(CNC(=O)C2CCC(=O)N2Cc2ccc(C)cc2)cc1 (centres undefined),0.678,2.2,2.3,1.4,·,-0.3,-0.9,i,-6.6,0.1
COc1ccc(NC2=Nc3cccc4cccc2c34)cc1OC,0.672,·,·,·,2.7,12.1,7.3,·,·,0.7
CC(C)Oc1ccc(CNC(=O)C2CCN(C(=O)N3CCOc4ccccc43)CC2)cc1,0.705,8.5,-3.9,-1.7,-0.8,3.4,1.9,i,-4.9,0.1
CCN(CC)C(=O)Cn1cc(SCC(=O)NC2CCCC2)c2ccccc21,0.705,1.6,-0.9,-2.0,-5.7,1.5,2.1,i,-0.9,1.4
COc1cc(C(=O)NNC(=O)c2cccc(Cl)c2)ccc1OCC(=O)N1CCOCC1,0.671,5.0,17.6,2.1,1.4,·,3.2,i,-0.9,0.4
CC(C)n1c(N2CCN(C(=O)Nc3ccc(Cl)cc3)CC2)nc2ccccc21,0.664,-37.6,-62.1,-9.1,-1.1,4.7,1.3,i,-1.9,0.3
CC1(C)Cc2c(sc3nn[nH]c(=O)c23)CO1,0.706,·,·,·,-0.1,-10.0,5.9,·,·,0.7
CCS(=O)(=O)n1nc(-c2ccccc2)nc1SCc1ccccc1,0.686,·,·,·,-5.4,-4.6,3.3,·,·,-0.4
CCOc1cc2[nH]c(=S)n(Cc3ccc(C(=O)NCCCN4CCOCC4)cc3)c(=O)c2cc1OCC,0.673,5.7,6.7,0.2,4.6,0.3,4.8,i,-0.9,-0.8
COc1ccc(C(CNC(=O)Cn2[nH]c(=O)c3ccccc3c2=O)N2CCCC2)cc1 (centres undefined),0.714,·,·,·,·,-1.9,0.0,·,·,-0.6
Cc1cc(C(=O)OCC(=O)NCc2ccc3c(c2)OCO3)c2ccccc2n1,0.669,-10.2,-6.5,-4.4,-1.2,-2.1,-0.4,i,-0.2,0.4
CC[C@]12c3[nH]c4ccccc4c3CCN1C(=O)C(CC(=O)NC(C)(C)C)C[C@@H]2C(=O)N1CCN(C(=O)C2CC2)CC1 (some centres undefined),0.658,5.3,27.4,3.1,-4.7,·,0.2,i,-1.2,0.8
C/C(=N\NC(=O)c1cc(-c2ccc(Br)s2)[nH]n1)c1ccncc1,·,-18.0,-12.2,0.1,2.5,-1.7,·,i,-0.9,-0.4
Cc1cc2cc(NC(=O)c3ccco3)ccc2[nH]1,0.714,·,·,·,-5.9,0.0,1.3,·,·,-0.8
CC(c1ccco1)N(C(=O)c1ccc(C#N)cc1)c1ccccn1 (centres undefined),0.675,·,·,·,0.9,-10.9,1.1,·,·,0.4
Cn1nnc(NC(=O)c2ccccc2F)n1,0.694,·,·,·,-3.9,-16.0,0.2,·,·,0.7
COC(=O)C1CCN(C(=O)Cc2ccc(C)cc2)CC1,0.732,·,·,·,-3.1,4.6,-2.6,·,·,-0.3
CC(C)N1CCc2c(sc(NC(=O)c3ccc(S(=O)(=O)N4CCc5ccccc54)cc3)c2C(N)=O)C1,0.72,·,·,·,3.0,36.7,1.5,·,·,0.5
CCOC(=O)CSc1nnc(-c2ccccc2NC(=O)c2ccccc2)o1,0.723,·,·,·,-0.5,-2.3,-0.7,·,·,0.1
O=C(CSc1ccc(-c2cccs2)nn1)c1cccs1,0.68,-13.9,-14.7,3.5,-5.3,12.6,2.9,·,-3.6,-0.5
COc1cccc(NC(=O)CN2C(=O)NC3(CCCCCC3)C2=O)c1,0.72,3.8,7.9,-1.2,-1.7,·,1.5,i,0.4,-0.1
CC(NC(=O)CSC(=S)N1CCCC1)c1ccc(S(N)(=O)=O)cc1 (centres undefined),0.691,7.8,12.2,1.1,-2.4,-5.9,-0.6,i,-1.1,0.2
Nc1nc2ccccc2n1/N=C/c1ccc([N+](=O)[O-])s1,·,4.4,0.9,-1.3,107.6*,50.2,·,i,2.2,-3.7
O=C(O)c1ccc(N2N=C(c3ccccc3)CC2c2ccccc2)cc1 (centres undefined),0.663,-29.6,-46.9,5.1,0.5,-1.2,i,i,-12.0,0.5
# The results go on:
SMILES,Ecoli growth,rRNA inh HTS,rRNA inh HTS OD600,rRNA inh HTS RFP,Beta apoptosis,T cruzi repl,UCH37 inh,FGF22 binding,MLL AF4-AF9 inh,Bfl-1 A1 inh
COc1ccc2oc(-c3ccccc3[N+](=O)[O-])cc(=O)c2c1,0.71,9.8,-19.5,-3.6,15.6,-2.9,5.5,i,1.5,0.5
CC(C)(C)n1nc(-c2ccc(F)cc2)c2c(N)ncnc21,0.74,·,·,·,-29.1,57.3*,4.3,·,·,0.2
CC(=O)c1ccc(NC(=O)CSc2nnc(C3CC3)n2C)cc1,0.71,3.9,9.7,-1.1,-0.8,4.4,4.7,i,-1.8,-0.1
CC(=O)C1CCC2C3CC(O)C4=CC(=O)CCC4(C)C3C(=O)CC12C (centres undefined),0.709,12.5,14.2,4.4,·,·,0.4,i,-7.9,·
Cc1cccc(NC(=O)CSCC(=O)N(C)CCOc2ccc(Cl)cc2)c1,0.699,-52.0,-80.9,-15.6,·,13.4,-1.3,i,2.9,0.1
N#CCCN(C(=S)NC(=O)c1cccs1)c1ccccc1F,0.692,6.0,11.3,-0.9,·,·,4.6,i,-1.4,·
CC(C)c1ccccc1OCCCCN1CCCCC1,0.654,-1.9,-14.8,0.6,-1.7,21.6,4.3,i,·,0.9
O=C(Nc1cccc(NC(=O)c2cccs2)c1)c1ccc(Br)cc1,·,8.1,10.1,3.7,-0.3,-13.3,·,i,-4.4,0.4
COc1ccccc1NC(=O)CSc1n[nH]c(-c2ccccn2)n1,0.61,-18.9,-49.0,-3.3,·,-20.7,0.7,i,-0.4,-0.2
COc1ccc(OC)c(NC(=O)CCC(=O)Oc2ccc(C)cc2)c1,0.684,5.3,13.8,2.3,-0.6,-11.5,0.7,i,0.0,-0.9
O=C(NCC(c1ccco1)N1CCOCC1)C1CCCCC1 (centres undefined),0.649,10.1,9.8,0.7,-1.7,3.7,2.5,i,0.2,0.5
O=C(Nc1ccc(Br)c2cccnc12)c1ccc(Cn2cc(Cl)cn2)o1,0.691,8.2,6.5,1.5,-12.8,1.1,6.9,i,-0.4,1.0
O=C(CSc1nnc(C2CC2)n1Cc1ccccc1)c1cc2ccccc2o1,0.728,·,·,·,-4.4,9.4,8.4,·,·,0.5
O=C(COc1c(F)c(F)c(C(F)(F)F)c(F)c1F)Nc1ccc(N2CCOCC2)c(Cl)c1,0.628,·,·,·,4.7,15.5,4.2,·,·,1.7
CC(C)CCNC(=S)Nc1ccccc1F,0.632,3.9,4.7,-1.3,-3.2,-19.4,0.9,i,-2.2,-0.2

# Some of the compounds tested; the hit share may differ from the screen's.
